Screens: PubChem, ICCB-Longwood Screening Facility, Harvard Medical School
Mtb MenB inh: blocks the Mycobacterium tuberculosis MenB enzyme. MenB enzyme assay, absorbance read-out; some hits fall short of the stated cut. 0.43% of 100,000 active. AID 540299. P9WNP5. inhibition, %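 (about 12 µg/mL by stock and volumes)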;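 active = mean of two replicates above 30%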;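 also: 0% = no compound and 100% = wells with inactive enzyme; the first replicate is given; strong numbers were not always called active; inactives centre near -10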
PV pol inh: inhibitors of poliovirus RNA polymerase binding and polymerization; P03300; poliovirus polymerase elongation, fluorescence polarization; active compounds read low; % elongation, % (compound at 16.7 µg/mL); 0.66% of 150,000 active; in the data active = % elongation below about 90%; also: some results filed as inactive read as strong as hits
Target sequence (P03300 1749-2209 limits assumed): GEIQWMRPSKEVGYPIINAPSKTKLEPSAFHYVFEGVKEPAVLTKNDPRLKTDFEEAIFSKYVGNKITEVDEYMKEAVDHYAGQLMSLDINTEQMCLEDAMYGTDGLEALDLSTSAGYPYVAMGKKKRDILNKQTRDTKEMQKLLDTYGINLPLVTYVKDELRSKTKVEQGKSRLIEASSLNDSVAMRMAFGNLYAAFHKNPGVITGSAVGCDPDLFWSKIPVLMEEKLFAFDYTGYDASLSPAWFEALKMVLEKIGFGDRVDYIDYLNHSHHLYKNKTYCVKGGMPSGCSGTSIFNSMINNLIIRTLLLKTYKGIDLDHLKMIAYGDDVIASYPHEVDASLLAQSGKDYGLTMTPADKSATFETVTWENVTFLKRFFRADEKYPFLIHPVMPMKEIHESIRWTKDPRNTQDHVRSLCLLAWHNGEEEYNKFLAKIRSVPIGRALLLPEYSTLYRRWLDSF
MbtI inh: inhibitors of Mycobacterium tuberculosis siderophore enzyme MbtI; P9WFX0; 0.89% of 100,000 active; inhibition, %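 (about 17 µg/mL by stock and volumes)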; AID 493033; purified MbtI enzyme, fluorescence intensity read-out;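 active = above 50% in both replicates, above 80% if mildly self-fluorescent; inactive = the rest, strongly fluorescent compounds included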;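 also: 0% = mean of negative and 100% = mean of positive controls; one replicate is shown; some compounds called inactive have numbers as strong as hits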
Target sequence (P9WFX0 whole entry, looked up): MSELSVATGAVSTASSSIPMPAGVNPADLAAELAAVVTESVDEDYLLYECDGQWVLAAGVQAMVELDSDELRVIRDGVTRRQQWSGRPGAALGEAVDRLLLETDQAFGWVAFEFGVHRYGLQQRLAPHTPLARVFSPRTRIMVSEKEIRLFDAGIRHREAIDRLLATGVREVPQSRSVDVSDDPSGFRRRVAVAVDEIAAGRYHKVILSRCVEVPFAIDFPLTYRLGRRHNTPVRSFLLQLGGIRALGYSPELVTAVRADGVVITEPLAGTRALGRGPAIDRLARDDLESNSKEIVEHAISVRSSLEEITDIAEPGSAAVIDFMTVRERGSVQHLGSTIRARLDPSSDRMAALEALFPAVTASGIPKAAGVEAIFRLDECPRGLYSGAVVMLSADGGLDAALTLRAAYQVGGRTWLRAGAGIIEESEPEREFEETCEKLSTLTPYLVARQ
PV pol inh intensity: recorded beside PV pol inh, whose call it bears; % elongation; measured here: total intensity read-out; formula for this scale not given here;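 total fluorescence in place of polarization; lower means less elongation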
* hit, by the source's call; x = not tested or not shown.

Start of the data: the first 11 entries, to show the layout:
item	SMILES	Mtb MenB inh	PV pol inh
1	CS(=O)(=O)N(Cc1ccccc1)c1ccccc1C(=O)NC1CCCC1	2	103
2	CCCN(CCC)C(=S)Nc1ccccc1	-59	100
3	Cc1nn2c3ccccc3n(C)c2c1C(=S)Nc1ccccc1	-38	103
4	CC1CCCCN1C(=S)NC(=O)c1ccco1 (configuration not stated)	-18	103
5	CC1CN(c2ccccc2)c2nc3c(c(=O)n(C)c(=O)n3C)n2C1 (configuration not stated)	-23	99
6	COc1cc(C(=O)NCCC(=O)NC2CCCc3ccccc32)cc(OC)c1OC (configuration not stated)	-3	101
7	C/C(=N\O)C(C)(C)Nc1ccc(Br)cc1	-12	107
8	Cc1cc(C)nc(SCCSc2nc(C)cc(C)n2)n1	34*	100
9	Clc1nc2ccc3nsnc3c2nc1Cl	11	42*
10	COc1cccc(C=Nc2cccc3c(=O)[nH][nH]c(=O)c23)c1O	-41	101
11	CCC(C)NC(=O)c1cn(CC)c(=O)c2cc(OC)c(OC)cc12 (configuration not stated)	-11	101

item	PV pol inh intensity	MbtI inh
1	96	x
2	99	-9
3	99	15
4	100	2
5	106	10
6	97	-1
7	104	14
8	103	-11
9	54*	88
10	107	3
11	101	2

All compounds of this part (from the top)
item	SMILES	Mtb MenB inh	PV pol inh
1	CS(=O)(=O)N(Cc1ccccc1)c1ccccc1C(=O)NC1CCCC1	2	103
2	CCCN(CCC)C(=S)Nc1ccccc1	-59	100
3	Cc1nn2c3ccccc3n(C)c2c1C(=S)Nc1ccccc1	-38	103
4	CC1CCCCN1C(=S)NC(=O)c1ccco1 (configuration not stated)	-18	103
5	CC1CN(c2ccccc2)c2nc3c(c(=O)n(C)c(=O)n3C)n2C1 (configuration not stated)	-23	99
6	COc1cc(C(=O)NCCC(=O)NC2CCCc3ccccc32)cc(OC)c1OC (configuration not stated)	-3	101
7	C/C(=N\O)C(C)(C)Nc1ccc(Br)cc1	-12	107
8	Cc1cc(C)nc(SCCSc2nc(C)cc(C)n2)n1	34*	100
9	Clc1nc2ccc3nsnc3c2nc1Cl	11	42*
10	COc1cccc(C=Nc2cccc3c(=O)[nH][nH]c(=O)c23)c1O	-41	101

item	PV pol inh intensity	MbtI inh
1	96	x
2	99	-9
3	99	15
4	100	2
5	106	10
6	97	-1
7	104	14
8	103	-11
9	54*	88
10	107	3

The list goes on:
item	SMILES	Mtb MenB inh	PV pol inh
11	CCC(C)NC(=O)c1cn(CC)c(=O)c2cc(OC)c(OC)cc12 (configuration not stated)	-11	101
12	O=C(CSc1nnc2ccccn12)Nc1ccc2c(c1)OC(F)(F)O2	-1	103
13	Cc1ccc(C(=O)Nc2nc3ccccc3c(=O)s2)cc1	-8	103
14	CCOC(=O)c1ccc(CNCc2ccccc2)cc1	11	103
15	COc1ccc(C(=O)O/N=C(/N)C2COc3ccccc3O2)cc1 (configuration not stated)	4	102
16	Cc1cc(C)c(NC(=O)c2ccncc2)c(C)c1	15	96
17	O=S(=O)(c1ccc2c(c1)OCCO2)N1CCN(c2ncccn2)CC1	28	101
18	C=CCNC(=O)N1CCc2[nH]c3ccc(F)cc3c2C1	-13	102
19	CN1/C(=C/C(=O)c2cccs2)C(C)(C)c2ccccc21	x	101
20	CNC(=S)N/N=C/c1cc(OC)c(OC)cc1OC	-8	103

item	PV pol inh intensity	MbtI inh
11	101	2
12	109	-2
13	103	2
14	96	31
15	101	-8
16	102	x
17	103	7
18	108	-8
19	106	-7
20	104	92

Further structures follow:
item	SMILES	Mtb MenB inh	PV pol inh
21	O=c1[nH]c(O)c(N=Nc2ccccc2)s1	0	104
22	O=C(O)CCCc1c(-c2ccccn2)[nH]c2ccc(F)cc12	-22	100
23	CCOC(=O)N1CCC2(CC1)Oc1ccccc1C1CC(c3ccccc3)=NN12 (configuration not stated)	-27	106
24	CCCCn1c(C2CC(=O)N(c3ccccc3OC)C2)nc2ccccc21 (configuration not stated)	-17	109
25	CC1(C)CC2CC(C)(CN2C(=O)CN2C(=O)c3ccccc3C2=O)C1 (configuration not stated)	-27	104
26	CCCCC(=O)Nc1nn2c(COc3ccc(C)cc3)nnc2s1	-21	102
27	CCN(CC)C(=O)c1ccc2c(c1)NC(=O)/C(=C/c1ccccc1)S2	-8	102
28	CCOC(=O)NC(=S)N1CCN(c2ccccc2)CC1	-23	100
29	O=C(O)C(Cc1c[nH]c2ccccc12)N1C(=O)CCC1=O (configuration not stated)	-14	102
30	O=C1CC(c2ccccc2)Sc2ccccc2N1Cc1ccccc1 (configuration not stated)	-24	103

item	PV pol inh intensity	MbtI inh
21	100	-2
22	104	-353
23	104	89
24	108	-14
25	107	-12
26	100	-10
27	107	-9
28	100	x
29	105	4
30	98	7

Continued.
item	SMILES	Mtb MenB inh	PV pol inh
31	CS(=O)(=O)c1ccc(NC(=O)CC2OC(=O)c3ccccc32)cc1 (configuration not stated)	11	96
32	CCCOc1nc(-c2ccccc2)cc(-c2ccccc2)n1	-13	100
33	Cc1cc(C(=O)Nc2nc(C34CC5CC(CC(C5)C3)C4)cs2)no1	11	100
34	C=CCN1C(=O)C2(C(C#N)=C(N)Oc3ccccc32)c2c1c1ccccc1oc2=O (configuration not stated)	-14	99
35	O=C(O)CC1C=CS(=O)(=O)C1 (configuration not stated)	x	103
36	O=C(CC(c1ccccc1)c1cc(Cl)ccc1O)N1CCOCC1 (configuration not stated)	9	100
37	COc1ccccc1C(=O)Nc1ccon1	-32	101
38	Cc1ccc(-c2cc(C(=O)Nc3cccc4c3CCCC4)[nH]n2)cc1C	-22	101
39	CCOC(=O)c1ccc2c(c1)[nH]c(=S)n2CC	11	101
40	O=C1CCC(=O)N1CN1CCN(c2ccccc2)CC1	-22	105

item	PV pol inh intensity	MbtI inh
31	100	4
32	104	x
33	102	-24
34	100	8
35	109	-6
36	103	1
37	106	-12
38	102	-7
39	101	14
40	102	-14

(further entries)
item	SMILES	Mtb MenB inh	PV pol inh
41	C=CCn1c(NCc2ccccc2OC)nc2ccccc21	14	100
42	O=C(Nc1cccc(-c2nc3cccnc3s2)c1)C1CC1	3	98
43	O=C1NC(=S)NC(=O)C1=C/C=C/c1ccco1	-44	72*
44	NC(=O)NC(=O)CSc1nc(N)cc(=O)[nH]1	-14	102
45	CCOC(=O)c1cc(-c2ccc(S(=O)(=O)NCCCN3CCOCC3)s2)on1	-28	101
46	CCOc1ccc(CN2C(=O)c3ccccc3Sc3ccc(C(=O)N4CCOCC4)cc32)cc1	-8	101
47	Cc1ccc(N/C=C2\CCCCC2=O)nc1	x	101
48	CC(=C\c1ccccc1)/C(C)=N/O	11	103
49	CN(C)C(=O)NC(c1ccccc1)c1ccccc1	-20	100
50	COc1ccc(/C(N)=N/OC(=O)Oc2ccccc2)cc1	11	100

item	PV pol inh intensity	MbtI inh
41	101	2
42	99	102
43	95*	62
44	109	-2
45	102	19
46	106	-3
47	97	-6
48	98	-5
49	100	-10
50	104	-10

(listing goes on)
item	SMILES	Mtb MenB inh	PV pol inh
51	O=C(CO/N=C/c1ccccc1O)N1CCc2ccccc21	-4	99
52	CCOC(=O)c1c(/N=C/N(C)C)sc2c1CCC2	-34	98
53	Cc1cc(C)cc(-n2c(C)cc(/C=C(\C#N)c3ccccc3)c2C)c1	-30	100
54	COc1cc(SC)ccc1C(=O)OCC(=O)c1ccccc1	-16	99
55	COc1ccc(C(=O)NC(C)Cc2ccccc2)cc1 (configuration not stated)	-17	104
56	c1ccc(-c2nnc(Cc3ccc4c(c3)OCO4)o2)cc1	3	102
57	CCC1CSC(Nc2c(C)cccc2C)=N1 (configuration not stated)	-1	102
58	O=C(CSc1nnc2sc3ccccc3n12)NC(=O)c1ccc(OC(F)F)cc1	4	95
59	COCCn1c(C)cc(C2=Nn3c(nnc3-c3ccccc3F)SC2)c1C	-28	101
60	O=C(NCCN1CCCCC1)Nc1c[nH]c2c(Cl)cccc2c1=O	1	100

item	PV pol inh intensity	MbtI inh
51	97	-10
52	102	10
53	100	6
54	104	18
55	106	x
56	97	0
57	106	-8
58	94	-9
59	103	-5
60	99	72

Next part
item	SMILES	Mtb MenB inh	PV pol inh
61	c1ccc(-c2cnc(SCCN3CCCCC3)nn2)cc1	-31	103
62	Cc1ccccc1OCC(=O)N1CCN(C=O)CC1	-38	105
63	O=C(CN1CCc2ccccc2C1)NCc1ccco1	-9	99
64	COc1cc(C(N)=O)cc(I)c1OC	-10	98
65	CCOC(=O)c1c(-c2ccccc2)oc2cc(CN(C)C)c(O)c(CN(C)C)c12	6	101
66	O=C1c2cccnc2C(=O)N1Cc1ccc(S(=O)(=O)N2CCOc3ccccc32)cc1	9	100
67	Cc1ccc(C)c(N2CCN(C(=O)Cn3c(=O)oc4ccccc43)CC2)c1	12	101
68	Cc1sc(NC(=O)Cn2c(=O)cnc3ccccc32)c(C#N)c1C	-24	104
69	Cc1nc(N2CCCCCC2)c2ccccc2n1	-32	109
70	N#Cc1ccc(/C=N/n2c(-c3ccc(OC(F)F)cc3)csc2=NCCN2CCOCC2)cc1	-82	156

item	PV pol inh intensity	MbtI inh
61	104	-5
62	106	-16
63	103	3
64	100	0
65	110	8
66	104	4
67	96	2
68	108	-2
69	111	4
70	169	-7

Next compounds:
item	SMILES	Mtb MenB inh	PV pol inh
71	Cc1ccc(CNC(=O)CC2(CC(=O)O)CCCC2)cc1	1	94
72	Cc1ccc(-n2c(=O)c3c(C)c(C(=O)N(C)C)sc3n(Cc3ccc(F)cc3Cl)c2=O)cc1C	4	103
73	FC(F)(F)c1cccc(Nc2nc3ccccc3[nH]2)c1	-6	100
74	Cc1cc(C(=O)CCC(=O)NC2CC2)c(C)s1	-20	106
75	COc1ccc(N2Cc3cccc(C(=O)NCC(OC)OC)c3C2=O)cc1	-1	103
76	CCc1nc2c(Cl)cc(Cl)cc2c(=O)o1	27	101
77	O=C1NCCCC1C(=O)N1CCN(C(=O)c2ccco2)CC1 (configuration not stated)	-33	104
78	CC(=O)N1CCc2cc(S(=O)(=O)CCC(=O)N(C)c3ccc(C)cc3)ccc21	-6	103
79	CCn1c(CNC(=O)c2ccccc2F)nnc1SCC(=O)Nc1cccc(OC)c1	-25	99
80	CC(CO)(CO)N=Cc1c(O)[nH]c(=O)[nH]c1=O	-15	102

item	PV pol inh intensity	MbtI inh
71	89	-5
72	98	8
73	104	-325
74	108	11
75	105	2
76	103	4
77	100	8
78	104	-4
79	101	-4
80	103	17

(next part)
item	SMILES	Mtb MenB inh	PV pol inh
81	COc1ccccc1CN(C)CC(=O)NC1CCCc2ccccc21 (configuration not stated)	-19	101
82	COCCN=C1NN=C(c2ccc(F)cc2)CS1	5	106
83	Cc1ccccc1NC(=O)C1CC(=O)Nc2nc3ccccc3n21 (configuration not stated)	1	100
84	CCOc1ccc(NC(=O)N(CCN(C)C)C(C)c2cccnc2)cc1 (configuration not stated)	-35	103
85	CCN1C(=O)C2C=CC=CC2NC1=S (configuration not stated)	4	101
86	Cc1ccc(-c2n[nH]c(=O)c3ccccc23)cc1	x	101
87	Nc1ccc(Cc2ccccc2)cc1	-31	104
88	O=C(N/N=C/C1CC2C=CC1C2)c1ccccc1O (configuration not stated)	0	105
89	CCOc1ccc(S(=O)(=O)Nc2nc3ccccc3nc2Nc2ccccc2)cc1	-14	100
90	CCN(CC)C(=O)C1CCCN(S(=O)(=O)c2ccc(OC)c(OC)c2)C1 (configuration not stated)	-13	100

item	PV pol inh intensity	MbtI inh
81	96	-12
82	97	44
83	102	-8
84	101	-4
85	108	3
86	102	-1
87	102	-2
88	102	72
89	99	-85
90	98	-3

More compounds:
item	SMILES	Mtb MenB inh	PV pol inh
91	O=c1[nH]c(=O)n(C2CCCCC2)c(O)c1/C=C1\C=Nc2ccccc21	-44	98
92	CC(=O)NN=C1CCCCCCC1	-15	99
93	Cc1cnc(=O)[nH]c1SCC(=O)OCc1ccccc1	-17	104
94	N#CCCn1nc(-c2ccccc2)c2ccccc2c1=O	-49	102

item	PV pol inh intensity	MbtI inh
91	100	0
92	101	-23
93	104	8
94	104	-3
